Bioassay records as filed in PubChem.
MC4R ag barr: agonists of human melanocortin 4 receptor (MC4R) beta-arrestin; U2OS MC4R beta-arrestin complementation, luminescence; percent of melanotan II response, DMSO zero; actives 0.98% (n = 360,000); AID 540308; activation, % at 8.9 µM; P32245;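 active means activation above a per-plate cutoff, the mean activation of sample wells on that plate plus 3 SD, cut at about 8% in these data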
NR2F2 inh: NR2F2 (human) inhibition, primary screen. actives 0.7% (n = 370,000). HEK293T NGFI-A luciferase reporter, luminescence. inhibition, % at 8.6 µM. AID 686940. P24468;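 active means inhibition above a per-plate cutoff, mean inhibition of test wells between control levels plus 3 SD, cut at about 38% in these data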;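 further: cells cotransfected with COUP-TFII expression vector driving the NGFI-A reporter; 0% = median of COUP-TF2 test wells and 100% = reporter-only cells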
NCOA1 inh: inhibitors of human steroid receptor coactivator 1 (SRC1). AID 588354. actives 0.12% (n = 360,000). inhibition, % at 3.6 µM. HEK293 GAL4-SRC1 luciferase reporter, luminescence. Q15788;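 active means inhibition above the campaign mean plus 3 SD, with each screening campaign given its own cutoff, cut at about 60% in these data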;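 further: 0% = DMSO treated cells and 100% = gossypol at 36 µM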
NCOA2 inhibitor: inhibits human steroid receptor coactivator 2; actives 0.17% (n = 370,000); inhibition, % at 9 µM; HEK293 GAL4-SRC2 luciferase reporter, luminescence; Q15596;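 active means inhibition above the mean inhibition of all tested compounds plus 3 SD, set per campaign, cut at about 52% in these data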;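 further: 0% = DMSO treated cells and 100% = cells given Gossypol at 36 µM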
ABHD5 PLIN5 PPI: ABHD5-PLIN5 protein interaction inhibition; Split G. princeps luciferase complementation, luminescence, 4 h; inhibition, % at 4 µM; actives 0.78% (n = 360,000); AID 602281;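 active means inhibition above the mean inhibition across every tested compound plus 3 SD, cut at about 22% in these data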;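 further: 0% = DMSO only wells and the 100% control is not disclosed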
Target sequence (Q00G26 whole entry, looked up): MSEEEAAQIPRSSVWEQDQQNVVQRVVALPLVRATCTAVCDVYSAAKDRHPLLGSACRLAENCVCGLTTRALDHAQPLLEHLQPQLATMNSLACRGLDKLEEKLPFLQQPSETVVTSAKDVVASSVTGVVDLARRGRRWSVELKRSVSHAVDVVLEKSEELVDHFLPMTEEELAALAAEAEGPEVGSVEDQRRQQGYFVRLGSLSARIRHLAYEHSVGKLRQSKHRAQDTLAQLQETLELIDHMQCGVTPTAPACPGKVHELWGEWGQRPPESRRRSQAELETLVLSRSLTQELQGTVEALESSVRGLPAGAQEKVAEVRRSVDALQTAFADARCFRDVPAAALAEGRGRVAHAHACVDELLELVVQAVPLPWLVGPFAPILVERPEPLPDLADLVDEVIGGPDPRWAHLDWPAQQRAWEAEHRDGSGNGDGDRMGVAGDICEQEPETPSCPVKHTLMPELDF
Target sequence (Q8WTS1 whole entry, looked up): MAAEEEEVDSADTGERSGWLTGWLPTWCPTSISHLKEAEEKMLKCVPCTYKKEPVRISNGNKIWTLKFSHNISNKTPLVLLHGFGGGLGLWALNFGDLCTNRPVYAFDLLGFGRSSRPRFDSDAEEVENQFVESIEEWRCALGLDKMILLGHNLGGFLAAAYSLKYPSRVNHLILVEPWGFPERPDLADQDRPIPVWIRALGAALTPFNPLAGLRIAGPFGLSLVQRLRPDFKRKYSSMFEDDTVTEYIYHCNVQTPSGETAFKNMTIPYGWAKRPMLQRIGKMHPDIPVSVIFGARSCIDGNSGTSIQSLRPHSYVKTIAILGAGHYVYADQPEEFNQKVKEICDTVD
MC4R antagonist: blocks human MC4R cAMP signaling; P32245; MC4R-expressing cells, MTII-stimulated cAMP, LANCE TR-FRET; inhibition, % at 6.5 µM; actives 0.48% (n = 360,000);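 active means inhibition above its plate's cutoff, the mean of tested wells on that plate plus 3 SD, cut at about 29% in these data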;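 further: 0% = Melanotan II alone and 100% = Melanotan II plus saturating MCL0020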
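system = U2OS cells with stable human MC4R expression | also added = Melanotan II challenge after compound preincubation | dosing = one concentration, 6.5 µM nominal | incubation = compound 30 min, challenge 1 h, detection 1 h | measured by = TR-FRET with Eu-cAMP and labeled anti-cAMP, 671 nm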
* marks the source's active call; other numbers are inactive results; . = not tested or not shown. A portion of the library (hit frequency here may not be typical).

The first 5 compounds as a preview:
1. COc1ccc(/C(N)=N/OC(=O)CSc2ccccc2)cc1
2. O=C(C1=NN(c2ccccc2)C2C(=O)N(c3ccc(Cl)cc3)C(=O)C12)c1ccccc1 (configuration not stated)
3. O=C(Nc1ccccc1Cl)/C(Cl)=C(\Cl)S(=O)c1ccccc1 (configuration not stated)
4. O=C1NC[C@H](c2ccccc2)OC(=O)[C@H](Cc2ccc(F)cc2)CC/C=C/C[C@@H]1CC(=O)N(CCO)Cc1ccccc1
5. CC(=O)Oc1ccc(-c2cc3ccc(OC(C)=O)cc3oc2=O)cc1
assay / compound	1	2	3	4	5
MC4R ag barr	0.1	0.0	-3.1	-0.7	-2.5
NR2F2 inh	-49.6	3.7	99.0*	18.7	12.2
NCOA1 inh	-100.0	-49.7	-23.1	15.1	-69.2
NCOA2 inhibitor	-73.7	-38.9	85.5*	-1.2	-53.4
ABHD5 PLIN5 PPI	-2.3	-2.1	81.7*	-2.7	-8.9
MC4R antagonist	2.2	3.9	34.9*	19.4	-4.4

This part in full, previewed entries included:
1. COc1ccc(/C(N)=N/OC(=O)CSc2ccccc2)cc1
2. O=C(C1=NN(c2ccccc2)C2C(=O)N(c3ccc(Cl)cc3)C(=O)C12)c1ccccc1 (configuration not stated)
3. O=C(Nc1ccccc1Cl)/C(Cl)=C(\Cl)S(=O)c1ccccc1 (configuration not stated)
4. O=C1NC[C@H](c2ccccc2)OC(=O)[C@H](Cc2ccc(F)cc2)CC/C=C/C[C@@H]1CC(=O)N(CCO)Cc1ccccc1
5. CC(=O)Oc1ccc(-c2cc3ccc(OC(C)=O)cc3oc2=O)cc1
6. Cc1cccc(C)c1-n1c(C)cc(/C=N\Nc2ccc([N+](=O)[O-])cn2)c1C
assay / compound	1	2	3	4	5	6
MC4R ag barr	0.1	0.0	-3.1	-0.7	-2.5	-0.7
NR2F2 inh	-49.6	3.7	99.0*	18.7	12.2	-18.6
NCOA1 inh	-100.0	-49.7	-23.1	15.1	-69.2	-29.7
NCOA2 inhibitor	-73.7	-38.9	85.5*	-1.2	-53.4	-42.5
ABHD5 PLIN5 PPI	-2.3	-2.1	81.7*	-2.7	-8.9	-1.6
MC4R antagonist	2.2	3.9	34.9*	19.4	-4.4	10.2

7. Cc1ccc(NC(=O)c2nc(S(=O)(=O)Cc3ccccc3)ncc2Cl)cc1
8. Cc1nc(=O)c(-c2ccccc2)c(C)n1-c1ccc(O)c(C(=O)O)c1
9. O=[N+]([O-])c1ccc(N2N=C(c3ccccc3)CC2c2ccccc2O)cc1 (configuration not stated)
10. C#CCOCCOCCOCCNc1nc(N2CCN(C(=O)CCCCCCCCCCNC(=O)[C@H](CCCCN)n3cc(C[C@@H](C)CC)nn3)CC2)nc(N2CCN(C(=O)CCCCCCCCCCNC(=O)[C@H](CCCCN)n3cc(C[C@@H](C)CC)nn3)CC2)n1
11. Cc1ccc(N2C(=O)Cc3ccccc3C2=O)cc1
12. O=C1NC[C@H](c2ccccc2)OC(=O)[C@@H](Cc2ccc(F)cc2)CC/C=C/C[C@H]1CC(=O)N(CCO)Cc1ccccc1
assay / compound	7	8	9	10	11	12
MC4R ag barr	-4.2	-0.1	-1.1	-0.3	-0.1	-1.5
NR2F2 inh	-5.6	3.0	0.5	.	6.6	19.2
NCOA1 inh	-58.4	-0.8	-11.3	-0.9	9.9	1.4
NCOA2 inhibitor	45.3	-5.2	8.7	.	-8.2	-12.8
ABHD5 PLIN5 PPI	71.9*	0.5	-1.8	58.1*	2.4	0.7
MC4R antagonist	11.2	-0.2	2.6	75.4*	18.8	20.0

13. O=C(O)Cn1nc(C(F)(F)F)c2c1CCCCC2
14. O=C1NC[C@@H](c2ccccc2)OC(=O)[C@H](Cc2ccc(F)cc2)CC/C=C/C[C@H]1CC(=O)N(CCO)Cc1ccccc1
15. O=[N+]([O-])c1ccc(N/N=C/c2c[nH]c3ccccc23)cc1
16. O=C1C(SCCO)=C(SCCO)C(=O)c2ccccc21
17. O=C(/C=C(O)/C=C/c1ccc(O)cc1)/C=C/c1ccc(O)cc1
18. O=C(COc1ccc(Cl)cc1Cl)Nc1noc2ccccc12
assay / compound	13	14	15	16	17	18
MC4R ag barr	-0.2	-1.2	-4.9	-4.1	-0.3	10.8*
NR2F2 inh	-14.1	4.1	-50.8	29.9	-13.2	-0.2
NCOA1 inh	-3.6	-23.0	-3.6	-12.0	0.7	1.2
NCOA2 inhibitor	-40.9	-14.2	-33.1	-19.8	-25.7	1.2
ABHD5 PLIN5 PPI	4.6	-9.8	10.1	97.0*	35.1*	-10.5
MC4R antagonist	4.4	7.5	3.3	97.4*	4.0	5.0

19. CCOC(=O)CS(=O)(=O)c1nc(-c2ccccc2)cc(C(F)(F)F)n1
20. N#CC(C#N)=C1C=CC=CN1/C(=C\c1ccco1)C(=O)c1ccccc1
21. Cc1ccc(S(=O)(=O)NC(C(=O)Oc2ccc3c(C(F)(F)F)cc(=O)oc3c2)c2ccccc2)cc1 (configuration not stated)
22. Nc1nc2ccccc2n1S(=O)(=O)c1ccc(Cl)cc1
23. C=CCn1c(O)c(C2=c3ccccc3=NC2=O)c2ccccc21
24. C/C(=N\Nc1ccc([N+](=O)[O-])cc1)c1cc2ccccc2o1
assay / compound	19	20	21	22	23	24
MC4R ag barr	-4.3	-2.9	-1.9	-0.4	-1.1	5.2
NR2F2 inh	-21.8	14.0	12.8	3.3	1.8	-33.0
NCOA1 inh	-13.1	-1.6	-13.2	-3.8	-17.2	-12.0
NCOA2 inhibitor	11.7	-16.3	15.7	-12.1	3.9	-16.1
ABHD5 PLIN5 PPI	67.2*	53.7*	1.1	-8.9	89.9*	5.7
MC4R antagonist	13.1	37.9*	9.7	3.3	-14.7	16.0

25. COc1ccccc1N1C(=O)C2C(C(=O)c3ccccc3)=NN(c3ccccc3)C2C1=O (configuration not stated)
26. O=C1NC[C@@H](c2ccccc2)OC(=O)[C@@H](Cc2ccc(F)cc2)CC/C=C/C[C@@H]1CC(=O)N(CCO)Cc1ccccc1
27. O=C1NC[C@@H](c2ccccc2)OC(=O)[C@@H](Cc2ccc(F)cc2)CC/C=C/C[C@H]1CC(=O)N(CCO)Cc1ccccc1
28. CCCN1C(=O)/C(=C/c2ccc(N3CCCC3)c(C)c2)NC1=S
29. COc1cc2c(cc1OC)C1C(=O)c3cc(OS(C)(=O)=O)c(OC)cc3C1N(C)C2=O (configuration not stated)
30. COc1cccc(NC(=O)c2nc(S(C)(=O)=O)ncc2Cl)c1
31. Cc1ccc(NC(=O)c2nc(S(=O)(=O)Cc3ccccc3C)ncc2Cl)cc1C
assay / compound	25	26	27	28	29	30	31
MC4R ag barr	-1.6	-1.6	-1.6	0.4	-1.6	-2.8	-4.5
NR2F2 inh	-0.5	11.9	5.3	3.7	-2.5	-40.4	30.6
NCOA1 inh	-20.3	-3.4	-3.0	-9.1	9.2	-143.6	-46.7
NCOA2 inhibitor	-10.9	8.7	-18.8	3.8	16.4	4.1	30.3
ABHD5 PLIN5 PPI	-0.3	-5.8	2.4	4.4	-10.1	53.1*	71.7*
MC4R antagonist	5.4	5.1	7.1	14.1	-7.1	3.2	31.9*

A second format for some results above.
29: COc1cc2c(cc1OC)C1C(=O)c3cc(OS(C)(=O)=O)c(OC)cc3C1N(C)C2=O (configuration not stated)
  MC4R ag barr = -1.6
  NR2F2 inh = -2.5
  NCOA1 inh = 9.2
  NCOA2 inhibitor = 16.4
  ABHD5 PLIN5 PPI = -10.1
  MC4R antagonist = -7.1
31: Cc1ccc(NC(=O)c2nc(S(=O)(=O)Cc3ccccc3C)ncc2Cl)cc1C
  MC4R ag barr = -4.5
  NR2F2 inh = 30.6
  NCOA1 inh = -46.7
  NCOA2 inhibitor = 30.3
  ABHD5 PLIN5 PPI = 71.7*
  MC4R antagonist = 31.9*
